VACV mCherry inh: qHTS for Stage-Specific Inhibitors of Vaccinia Orthopoxvirus: mCherry Reporter Primary qHTS; Vaccinia virus mCherry reporter infection, fluorescence; about a quarter of the inactives have no number; Potency, µM (top dose mostly 36.5 µM), without a hit: at the highest dose activity change, negative = inhibition, usual class: inhibitors; AID 720579, 2013; hit rate 0.63% among 310,000; active = well fitted inhibition curve with a large enough effect; inconclusive = small, poorly fitted or top-dose-only effect; inactive = no such curve, though single readings can be large or run the other way; tested in A549 cells; further: nearly all actives have a fitted effect of over 35% in size; inactives centre near -10
Vaccinia Venus: qHTS for Stage-Specific Inhibitors of Vaccinia Orthopoxvirus: Venus Reporter Primary qHTS | Vaccinia virus Venus reporter expression, fluorescence | Potency, µM (highest dose often 36.5 µM), inactives show at the top dose activity change, negative = inhibition, hits mostly inhibitors | hit rate 0.46% among 330,000 | AID 720580, 2013; active means well fitted inhibition curve with a large enough effect; inconclusive means small, poorly fitted or top-dose-only effect; inactive means no such curve, though single readings can be large or run the other way; tested in A549 cells; further: nearly all actives have a fitted effect of over 30% in size; inactives centre near -10
* marks the source's active call; other numbers are inactive results; [ ] = dose if it differs, or a comment. On the % scale 0 is the no-effect control and ±100 the full control effect; potency means the concentration at half of the fitted maximal effect.

What do the screens show for `CCOC(=O)c1ccc(NC(=S)P(=O)(c2ccccc2)c2ccccc2)cc1`?
VACV mCherry inh: -18%; Vaccinia Venus: -23%

What do the screens show for `Cc1cccc(-c2noc(CN(C(C)C)S(=O)(=O)c3ccc(Br)cc3)n2)c1`?
VACV mCherry inh: -16%; Vaccinia Venus: -17%

How did Cc1cc(S(=O)(=O)N2CCCCC2)ccc1OCC(=O)N1CCCC1 do in these assays?
VACV mCherry inh: -13%; Vaccinia Venus: -11%

What do the screens show for `NC(C(=O)O)c1cc(O)c(Cl)c(O)c1` (configuration not stated)?
VACV mCherry inh: inactive; Vaccinia Venus: -1%

What do the screens show for `COc1ccccc1/C=C/CN1CCN(Cc2ccc(F)cc2)C(CCO)C1` (configuration not stated)?
VACV mCherry inh: -4%; Vaccinia Venus: -2%

How did Cn1c(NCc2ccccc2F)nc2cc(-c3ccccc3)sc2c1=O do in these assays?
VACV mCherry inh: inconclusive; Vaccinia Venus: inconclusive

Results for CCOc1cc(OCC)cc(C(=O)N2CCC[C@@H]2C(=O)N2CCC[C@H]2C(=O)NCc2ccncc2)c1 ?
VACV mCherry inh: 22%; Vaccinia Venus: 12%

What do the screens show for `Cc1ccc(CSC2=NCCN2C(=O)c2ccc(S(=O)(=O)N(C)C)cc2)cc1`?
VACV mCherry inh: -4%; Vaccinia Venus: -20%

How did Cc1ccc(S(=O)(=O)N2C[C@H]3N(C(=O)OC(C)C)N(C(=O)OC(C)C)C[C@H](OC(=O)NCC4CCCCC4)[C@@]3(O)C2)cc1 do in these assays?
VACV mCherry inh: -1%; Vaccinia Venus: inconclusive

What do the screens show for `ON=C1CCC2CCCCC2C1` (configuration not stated)?
VACV mCherry inh: -25%; Vaccinia Venus: -11%

How did Cc1cccc(N2C(S)=C(C#N)C(=O)NC2c2cccs2)c1 (configuration not stated) do in these assays?
VACV mCherry inh: -11%; Vaccinia Venus: -9%

What do the screens show for `CCn1c2ccccc2c2nnc(N3CCN(c4cccc(C)c4C)CC3)nc21`?
VACV mCherry inh: -12%; Vaccinia Venus: -6%

How did O=C(Oc1cccc2cccnc12)c1ccc(Br)o1 do in these assays?
Vaccinia Venus: 14%

Results for O=C1C=Cc2ccccc2/C1=C/c1[nH]c(=O)[nH]c1O ?
VACV mCherry inh: inconclusive; Vaccinia Venus: 5%

Results for CC(C)C1C(C#N)=C(N)Oc2n[nH]c(C(C)(C)C)c21 (configuration not stated) ?
Vaccinia Venus: -19%

How did COCc1c(C(=O)N/N=C/c2ccco2)nnn1-c1nonc1N do in these assays?
VACV mCherry inh: 3%; Vaccinia Venus: 0%

How did O=C(NCc1ccccc1)N1CCC(CO)(CCc2ccccc2)CC1 do in these assays?
VACV mCherry inh: inactive; Vaccinia Venus: -12%

Results for COC(=O)c1c(N(S(C)(=O)=O)S(C)(=O)=O)sc2c1CCN(c1ncc(C(F)(F)F)cc1Cl)C2 ?
VACV mCherry inh: inconclusive; Vaccinia Venus: inconclusive

How did Cc1ccccc1Cn1nnc2c(=O)[nH]c(C3CCN(C(=O)c4ccccc4)CC3)nc21 do in these assays?
VACV mCherry inh: -11%; Vaccinia Venus: 8%

Results for CCOC(=O)N1CCC(N2CCN(S(=O)(=O)c3ccc(NC(C)=O)cc3)CC2)CC1 ?
VACV mCherry inh: -21%; Vaccinia Venus: -13%

How did COc1ccc2c(c1)c(CC(=O)Nc1cc(C)ccc1C)c(C)n2C(=O)c1ccc(Cl)cc1 do in these assays?
VACV mCherry inh: inactive; Vaccinia Venus: -5%

Results for O=C(COC(=O)c1cc2ccccc2oc1=O)Nc1ccc(F)cc1F ?
VACV mCherry inh: -7%; Vaccinia Venus: -5%

How did Cc1ccc(-c2nn(-c3ccc(F)cc3)cc2C(=O)NCC(c2cccs2)N2CCOCC2)cc1 (configuration not stated) do in these assays?
VACV mCherry inh: -14%; Vaccinia Venus: 2%

How did Cc1ccc(NCC(=O)N/N=C/c2ccc(-c3cccc(C(F)(F)F)c3)o2)cc1 do in these assays?
VACV mCherry inh: -2%; Vaccinia Venus: inconclusive

How did CCCC(=O)c1ccc(N2CCN(C(=O)OCC)CC2)c(F)c1 do in these assays?
VACV mCherry inh: -18%; Vaccinia Venus: -10%

How did O=C(NCc1ccccc1F)C(=O)NCC(c1ccco1)S(=O)(=O)c1cccs1 (configuration not stated) do in these assays?
VACV mCherry inh: -11%; Vaccinia Venus: -18%

Results for CCN1CCN(Cc2nc3c(c(=O)[nH]c(=O)n3C)n2Cc2ccccc2Cl)CC1 ?
VACV mCherry inh: -10%; Vaccinia Venus: 6%

How did Cc1ccc(C(NC(=O)c2ccccc2)C(Cl)Cl)cc1 (configuration not stated) do in these assays?
VACV mCherry inh: -12%; Vaccinia Venus: -4%

How did CCc1ccc(NCc2cc3ccc(OC)cc3n(CC(=O)Nc3ccc(C(C)C)cc3)c2=O)cc1 do in these assays?
VACV mCherry inh: -21%; Vaccinia Venus: -29%

Results for Cc1cc(S(=O)(=O)N2CCOCC2)ccc1OCC(=O)NCCN1CCOCC1 ?
VACV mCherry inh: -9%; Vaccinia Venus: -1%

How did CSC1=C(C#N)C(c2ccccc2Cl)C(C(=O)c2cccs2)C(O)(C(F)(F)F)N1 (configuration not stated) do in these assays?
VACV mCherry inh: -16%; Vaccinia Venus: -10%

Results for COc1ccc(S(=O)(=O)Nc2ccc3c(c2)C(=O)N([C@H](C)CO)C[C@H](C)[C@@H](CN(C)C(=O)NC(C)C)O3)cc1 ?
VACV mCherry inh: -19%; Vaccinia Venus: -2%

How did O=c1c2nnn(-c3ccc(Cl)cc3)c2ncn1Cc1ccccn1 do in these assays?
VACV mCherry inh: -5%; Vaccinia Venus: -4%

What do the screens show for `Cn1c(=O)c2c(nc(CN3CCc4ccccc4C3)n2Cc2ccc(F)cc2)n(C)c1=O`?
VACV mCherry inh: -27%; Vaccinia Venus: -14%

Results for CC1(CN2CCCC2)CCC(NC(=O)C(c2ccccc2)c2ccccc2)C(C)(C)O1 (configuration not stated) ?
VACV mCherry inh: -20%; Vaccinia Venus: -18%

Results for Cc1cc(C)c[n+](C[n+]2cc(C)cc(C)c2)c1 ?
VACV mCherry inh: inactive; Vaccinia Venus: -2%

What do the screens show for `CC1=CC(C)(C)N(C(=O)CSc2nnc(N)s2)c2c(C)cc(C)cc21`?
Vaccinia Venus: -28%

What do the screens show for `COc1ccccc1C(=O)Nc1ccc2[nH]ncc2c1`?
VACV mCherry inh: -6%; Vaccinia Venus: 17%

Results for COc1ccc(/C(=N\O)c2ncc(C(F)(F)F)cc2Cl)cc1 ?
Vaccinia Venus: -22%

What do the screens show for `C[C@@H]1O[C@@H](OC[C@@H]2O[C@H](Oc3c(-c4ccc(O)cc4)oc4cc(O)cc(O)c4c3=O)[C@@H](O)[C@H](O)[C@H]2O)[C@H](O)[C@H](O)[C@H]1O`?
VACV mCherry inh: inactive; Vaccinia Venus: -10%

What do the screens show for `Cc1ccccc1OCCOCCN1CCCCCC1`?
VACV mCherry inh: -1%; Vaccinia Venus: -12%

How did CCc1ccc(OCC(=O)NNC(=O)c2ccc(NC(=O)C3CC3)cc2)cc1 do in these assays?
VACV mCherry inh: -13%; Vaccinia Venus: -14%

How did CNS(=O)(=O)c1cc(NC(=O)CCNC(=O)c2ccco2)ccc1C do in these assays?
VACV mCherry inh: -1%; Vaccinia Venus: -9%

What do the screens show for `CC1CCN(S(=O)(=O)c2cc(C(=O)N3CCN(c4ncccn4)CC3)ccc2Br)CC1`?
VACV mCherry inh: -14%; Vaccinia Venus: -25%

Results for CCc1ccccc1NC(=O)NCc1ccc2c(c1)CCN2C(=O)c1ccccc1 ?
VACV mCherry inh: -16%; Vaccinia Venus: -17%

What do the screens show for `O=[N+]([O-])c1ccc(COc2ccc(CN3CCCC3)cc2)cc1`?
VACV mCherry inh: -12%; Vaccinia Venus: -17%

How did CC1CCCC(C)N1C(=O)CSc1nnc(CSc2ncccn2)n1C (configuration not stated) do in these assays?
VACV mCherry inh: -7%; Vaccinia Venus: -3%

What do the screens show for `CCOC(=O)C1C(=O)C=C(/C=C/c2ccc(N(C)C)cc2)CC1c1ccccc1` (configuration not stated)?
VACV mCherry inh: inactive; Vaccinia Venus: 423%[activator]

Results for CSc1nc(-c2ccc(Cl)cc2)c(C#N)c(=O)n1C ?
VACV mCherry inh: 0%; Vaccinia Venus: -3%

What do the screens show for `CCOc1ccc(C(=O)NCc2ccncc2)cc1`?
Vaccinia Venus: -17%

Results for CCOC(=O)CCCCCC(=O)Nc1ccc2c(c1)C(=O)N([C@@H](C)CO)C[C@@H](C)[C@H](CN(C)C(=O)c1ccncc1)OCCCC[C@H](C)O2 ?
VACV mCherry inh: inactive; Vaccinia Venus: -8%

How did O=C(Nc1nc(-c2cccs2)cs1)C1CC(=O)N(c2ccc3c(c2)OCCO3)C1 (configuration not stated) do in these assays?
VACV mCherry inh: -20%; Vaccinia Venus: -25%

Results for COc1ccc(-n2ccn(CC(=O)Nc3ccccc3C(F)(F)F)c(=O)c2=O)cc1OC ?
VACV mCherry inh: -6%; Vaccinia Venus: 0%

Results for CC(=O)c1cc(C(=O)NC2CCCc3c2cnn3-c2cc(C)cc(C)c2)[nH]n1 (configuration not stated) ?
VACV mCherry inh: -15%; Vaccinia Venus: -6%

How did COCCN=c1scc(-c2cc(OC)c(OC)c(OC)c2)n1/N=C/c1c(C)[nH]c2ccccc12 do in these assays?
VACV mCherry inh: inconclusive; Vaccinia Venus: inconclusive

How did O=C(CSCn1nnc2c(=O)[nH]c(Cc3ccc(F)cc3)nc21)Nc1ccccc1 do in these assays?
VACV mCherry inh: -7%; Vaccinia Venus: -3%

What do the screens show for `CC(=O)Nc1ccccc1-c1ccccc1[N+](=O)[O-]`?
VACV mCherry inh: inactive; Vaccinia Venus: -1%

How did Cc1ccc2c(c1)sc1nncn12 do in these assays?
VACV mCherry inh: inactive; Vaccinia Venus: -5%

What do the screens show for `CCC(C)N(C(=O)c1csnn1)C(C(=O)NC1CCCC1)c1ccccc1F` (configuration not stated)?
VACV mCherry inh: -7%; Vaccinia Venus: -4%

Results for CC(C)(C)OC(=O)N1CCC(C(=O)Nc2ccc(C(=O)N3CCCCC3)cc2)CC1 ?
VACV mCherry inh: 5%; Vaccinia Venus: -9%

Continued, overlapping the part above by two compounds.
What do the screens show for `CCC(C)N(C(=O)c1csnn1)C(C(=O)NC1CCCC1)c1ccccc1F` (configuration not stated)?
VACV mCherry inh: -7%; Vaccinia Venus: -4%

Results for CC(C)(C)OC(=O)N1CCC(C(=O)Nc2ccc(C(=O)N3CCCCC3)cc2)CC1 ?
VACV mCherry inh: 5%; Vaccinia Venus: -9%

Results for N#Cc1c(-c2ccc(Cl)cc2)c2c([nH]c1=S)CCCC2 ?
VACV mCherry inh: -1%; Vaccinia Venus: -4%

How did CCOC(=O)c1cc(NC(=O)CCC(=O)O)ccc1N1CCCCC1 do in these assays?
VACV mCherry inh: 0%; Vaccinia Venus: -9%

How did NC(=NC(=O)c1ccc(Cl)cc1)N1N=CCC1c1ccccc1 (configuration not stated) do in these assays?
VACV mCherry inh: -8%; Vaccinia Venus: -20%

Results for Cc1ccc(C(=O)CNc2ccc(C)cc2C)cc1 ?
VACV mCherry inh: inactive; Vaccinia Venus: -7%

What do the screens show for `COc1ccc(CNC(=O)c2cc(=O)c3ccc(C)c(C)c3o2)cc1`?
VACV mCherry inh: -9%; Vaccinia Venus: -15%

How did CCN(c1ccc(NS(=O)(=O)c2cc(Cl)ccc2Cl)cc1)C(C)C do in these assays?
VACV mCherry inh: -4%; Vaccinia Venus: -22%

What do the screens show for `S=c1[nH]nc(-c2ccc(Br)cc2)n1Cc1ccco1`?
Vaccinia Venus: -38%

How did CC[C@]12c3[nH]c4ccccc4c3CCN1C(=O)C(CC(=O)NCCCOC)C[C@@H]2C(=O)N1CCN(C(=O)C2CC2)CC1 (some centres not stated) do in these assays?
VACV mCherry inh: inactive; Vaccinia Venus: -13%

What do the screens show for `COc1cccc(CNC(=O)CC(NC(C)=O)c2ccccc2)c1` (configuration not stated)?
VACV mCherry inh: inactive; Vaccinia Venus: -6%

Results for O=C(CSc1nnnn1-c1ccc(F)cc1)NNC(=O)c1ccco1 ?
VACV mCherry inh: inactive[7.34 µM]; Vaccinia Venus: 0%[7.34 µM]

Results for COc1ccc(CCNC(=O)COC(=O)c2cnc(Cl)c(Cl)c2)cc1 ?
VACV mCherry inh: inconclusive; Vaccinia Venus: -14%

An excerpt from above in order of heavy-atom count, largest number first.
How did CC[C@]12c3[nH]c4ccccc4c3CCN1C(=O)C(CC(=O)NCCCOC)C[C@@H]2C(=O)N1CCN(C(=O)C2CC2)CC1 (some centres not stated) do in these assays?
VACV mCherry inh: inactive; Vaccinia Venus: -13%

Results for CC(C)(C)OC(=O)N1CCC(C(=O)Nc2ccc(C(=O)N3CCCCC3)cc2)CC1 ?
VACV mCherry inh: 5%; Vaccinia Venus: -9%

How did CCOC(=O)c1cc(NC(=O)CCC(=O)O)ccc1N1CCCCC1 do in these assays?
VACV mCherry inh: 0%; Vaccinia Venus: -9%

How did CCN(c1ccc(NS(=O)(=O)c2cc(Cl)ccc2Cl)cc1)C(C)C do in these assays?
VACV mCherry inh: -4%; Vaccinia Venus: -22%

How did NC(=NC(=O)c1ccc(Cl)cc1)N1N=CCC1c1ccccc1 (configuration not stated) do in these assays?
VACV mCherry inh: -8%; Vaccinia Venus: -20%

Results for N#Cc1c(-c2ccc(Cl)cc2)c2c([nH]c1=S)CCCC2 ?
VACV mCherry inh: -1%; Vaccinia Venus: -4%

What do the screens show for `S=c1[nH]nc(-c2ccc(Br)cc2)n1Cc1ccco1`?
Vaccinia Venus: -38%
